VACV E9 pol inh – vaccinia E9 polymerase processive synthesis inhibitors, primary screen, biochemical, absorbance | normalized absorbance, % (test concentration not listed) | 46,000 compounds, 0.94% hits | Vaccinia virus DNA polymerase (E9) processive complex | in vitro processive DNA synthesis, absorbance read-out; hits give low values; some inactives read as strong as hits;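 active = replicate mean up to 90% and picked by the depositor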;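 note: 100% = median of the test wells of a plate; 100 nL library stock went into each well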
* = called active by the depositor. This is a subset (hit frequency here may not be typical).

Structure | VACV E9 pol inh
CCn1ccc(C(=O)Nc2nccs2)n1 | 100
O=C(Nc1nc(-c2ccncc2)cs1)c1ccc(Br)s1 | 100
CCNC(=O)c1ccc2c(c1)sc1nc(-c3ccccc3)cn12 | 90
Cc1nn(CCC(N)=O)c2nc(-c3cccnc3)cc(C(F)(F)F)c12 | 99
Cc1onc(-c2c(Cl)cccc2Cl)c1C(=O)NC(C)(C)CO | 100
Fc1cccc(Cl)c1CSC(=S)N1CCSCC1 | 102
CC1CCC(C(=O)NC(C(=O)NCc2ccccn2)C(C)C)CC1 (stereo unspecified) | 87
CCc1ccc2c(c1)c1nc3ccccc3nc1n2CC | 100
CN(C)S(=O)(=O)c1ccc(C(N)=O)cc1 | 95
O=C(OCc1ccc2nonc2c1)c1c2c(nc3ccccc13)CCCC2 | 90
O=S(=O)(c1ccc(Cl)cc1)N1CCCC1c1ccc(F)cc1 (stereo unspecified) | 111
CN(Cc1ccccc1)C(=O)c1c[nH]c2ccc(S(=O)(=O)N3CCOCC3)cc2c1=O | 94
Cc1c(C=Nc2ccc(N3CCOCC3)cc2)c2ccccc2n1C | 100
Cc1ccccc1NC(=O)CSC1=NCCN1 | 101
FC(F)(F)c1cc(Cl)nc(-c2ccncc2)n1 | 76
O=C(NCCc1ccccc1)c1nnc(CS(=O)(=O)c2ccccc2)o1 | 104
CC(C)N(C(=O)NCc1ccccc1)C(C)C | 85
CC1(C)CC(=O)C=C(NCc2ccccc2)C1 | 102
CCOC(=O)c1sc(SCc2c(Cl)cccc2Cl)c(S(=O)(=O)C(C)C)c1N | 100
COC(=O)c1ccc2c(c1)C1C3CCC(C3)C1C(c1ccccc1)N2 (stereo unspecified) | 98
Cc1nccc(-c2cc(-c3cccc(C(F)(F)F)c3)no2)n1 | 100
Cc1cc(OCC(=O)N(c2ccccc2)C2CCCCC2)c2ccccc2n1 | 95
O=C1CC(c2ccccc2)CN1C(=O)c1ccccc1Cl (stereo unspecified) | 95
O=C1/C(=C/c2cccs2)SC(=S)N1C1CCCCC1 | 101
CC(=C\c1ccccc1)/C=C1/SC(=O)NC1=O | 99

Four records drawn at random from the list so far:
Structure | VACV E9 pol inh
CC(=C\c1ccccc1)/C=C1/SC(=O)NC1=O | 99
Cc1onc(-c2c(Cl)cccc2Cl)c1C(=O)NC(C)(C)CO | 100
O=C1/C(=C/c2cccs2)SC(=S)N1C1CCCCC1 | 101
Cc1nn(CCC(N)=O)c2nc(-c3cccnc3)cc(C(F)(F)F)c12 | 99

Following part.
Structure | VACV E9 pol inh
O=C(COC(=O)c1ccccc1Br)c1cccs1 | 97
Cc1ccc2cc(CN(Cc3ccccc3)C(=O)c3ccccc3C)c(=O)[nH]c2c1 | 102
COc1ccc(C(=O)CSc2nc3ccccc3s2)cc1 | 90
Cc1ccc(S(=O)(=O)NC(O)C(=O)c2cccs2)cc1 (stereo unspecified) | 100
CC(C)(C)c1ccc(C(=O)N(CC#N)CC#N)cc1 | 100
CC(NC(=O)c1ccccc1NC(=O)c1ccccc1)C(=O)N1CCCC1 (stereo unspecified) | 99
OC(CNCc1ccccc1)C(F)(F)F (stereo unspecified) | 101
Cc1nn(C(=O)c2ccco2)c(C)c1Sc1ccccc1 | 101
C=CCS/C(=N\n1cnc2ccccc2c1=O)N1CCCCC1 | 100
O=C1CSc2ccc(C(=O)N3CCCCC3)cc2N1 | 98
OC(COc1ccccc1Br)CN1CCN(Cc2ccccc2)CC1 (stereo unspecified) | 82
CC1(C(=O)NC2CCCCCC2)Cc2ccccc2C(=O)N1Cc1ccco1 (stereo unspecified) | 93
O=C(NCc1ccc(F)cc1)[C@H](CSCc1ccccc1)N1Cc2ccccc2C1=O | 103
O=C(c1cccc2c1C(=O)N(C1CCCCC1)C2)N1CCN(c2ccc(F)cc2)CC1 | 92
COc1ccc(NC(=O)c2ccc(S(=O)(=O)N3CCCC3)cc2)cc1 | 105
CC(=O)N(C)CCc1ccc(C)[n+]([O-])c1 | 99
O=C(NCCc1ccccc1)c1cc(-c2ccccc2)c(N2CCOCC2)s1 | 92
CCc1nnc2c3c(-c4ccccc4)csc3ncn12 | 103
FC(F)(F)c1cccc(Nc2ncn[nH]2)c1 | 94
Cc1nc(SCC(=O)O)c2c3c(sc2n1)CCCC3 | 94
COc1ccc(N2CC(C)(C)C2=O)cc1 | 110
O=C(CC1SC(=O)NC1=O)Nc1cccc(C(F)(F)F)c1 (stereo unspecified) | 101
O=C1c2ccccc2C(=O)C1C(c1ccccc1)C1C(=O)c2ccccc2C1=O | 99
CN(C)CCNC(=O)Cn1ncc2c(=O)oc3ccccc3c21 | 88
COc1ccc(S(=O)(=O)Nc2nc3ccccc3s2)cc1OC | 98

An excerpt from above in order of heavy-atom count, smallest number first.
Structure | VACV E9 pol inh
OC(CNCc1ccccc1)C(F)(F)F (stereo unspecified) | 101
Cc1ccccc1NC(=O)CSC1=NCCN1 | 101
CC(C)(C)c1ccc(C(=O)N(CC#N)CC#N)cc1 | 100
O=C1CC(c2ccccc2)CN1C(=O)c1ccccc1Cl (stereo unspecified) | 95
O=S(=O)(c1ccc(Cl)cc1)N1CCCC1c1ccc(F)cc1 (stereo unspecified) | 111
COc1ccc(S(=O)(=O)Nc2nc3ccccc3s2)cc1OC | 98
Cc1c(C=Nc2ccc(N3CCOCC3)cc2)c2ccccc2n1C | 100
O=C(NCCc1ccccc1)c1cc(-c2ccccc2)c(N2CCOCC2)s1 | 92

(further entries)
Structure | VACV E9 pol inh
CC12C(=O)N(Cc3ccccc3)C(=O)C1C1C=CC2C1 (stereo unspecified) | 99
CCOC(=O)c1cc(-c2ccccc2)n(CCC(=O)N(C)Cc2ccccc2)c1 | 95
O=C(Oc1ccc(C=Nc2ccc(F)cc2)cc1)c1ccco1 | 100
CC1CC(C)(C)NC(=S)N1CCCC(=O)NCc1ccccc1 (stereo unspecified) | 106
COc1ccc2c(c1)CCc1c-2nc2ccc(Br)cc2c1C(=O)O | 100
CCn1c(CNC(=O)c2ccccc2)nc2ccccc21 | 100
COc1ccc(CNC(=O)OCc2nccnc2C(=O)Nc2ccc(Br)cn2)cc1 | 93
Cc1ccc(-c2csc(NC(=O)c3cccc(Cl)c3)n2)cc1C | 97
CC(NC(=O)COc1ccccc1F)C1CC2CCC1C2 (stereo unspecified) | 96
Oc1nc2ccccn2c1-c1c(O)nc2ccccn12 | 98
Cc1ccc(Cn2c(SCC(=O)c3ccc(Br)cc3)nc3ncccc3c2=O)cc1 | 100
CC(Cc1ccccc1)NC(=O)CC(c1ccccc1)c1cc(Br)ccc1O (stereo unspecified) | 101
Clc1ccc(CSc2nc3ccccc3s2)cn1 | 105
Cc1cc(I)ccc1NC(=O)CSc1ncn[nH]1 | 91
O=C(NCc1ccc(-c2nc3ccccc3s2)cc1)c1cccnc1 | 102
CN1CCN(CCCN2C(=O)CSC2c2ccc(F)cc2)CC1 (stereo unspecified) | 100
O=C(Nc1ccc(Cl)cc1)C1CC(=O)N(Cc2ccc(F)cc2)C1 (stereo unspecified) | 118
COc1ccc(/C=N/n2cnnc2)cc1 | 99
O=C(Cn1c(C(F)(F)F)nc2ccccc21)c1ccccc1 | 104
O=C(CSc1nc2ccsc2c(=O)n1Cc1ccccn1)c1ccccc1 | 96
CN1C(=O)C(C)(C)c2cc(S(=O)(=O)N3CCc4ccccc43)ccc21 | 99
Cc1cccc(NC(=O)CC(NC(C)C)C(=O)O)c1 (stereo unspecified) | 103
CC1CCN(Cc2c(O)ccc3occ(C(=O)c4ccccc4)c23)CC1 | 90
CC1=C(C(=O)Nc2ccc(Cl)cc2C(=O)N2CCc3ccccc32)SCCO1 | 92
On1c(-c2ccccc2Cl)nc2c1CCc1nonc1-2 | 100
c1ccc(-c2ccccc2NC2=NCCS2)cc1 | 95
N#CC1=CC=C(c2ccc(Cl)cc2)NC1SCc1nc2ccccc2[nH]1 (stereo unspecified) | 100
COc1ccc(NC(=O)N(Cc2ccc(C)cc2)Cc2ccccn2)c(OC)c1 | 113
Fc1ccccc1OCc1nnc2n1CCCCC2 | 85
COc1ccc2c(c1)C=C(C#N)CO2 | 105
CCN1CCCC1CNC(=O)c1ccc(-n2c(-c3ccccc3)cc3c2CCCC3)cc1 (stereo unspecified) | 56
Oc1ccc(CN2CCCCC2)nc1-c1ccccc1 | 98
C=C(C)CSc1nnc2c(n1)[nH]c1ccccc12 | 100
CCOC(=O)c1oc2ccc3c(c2c1C)C(=O)CC(C)(C)O3 | 85
O=C(Nc1ccccc1)c1ccc(NC2=NC3CS(=O)(=O)CC3S2)cc1 (stereo unspecified) | 102
O=C(NCc1ccco1)c1ccccc1C(=O)c1ncc[nH]1 | 101
Cc1ccc2nc(Nc3cccc(C(F)(F)F)c3)c(C#N)cc2c1 | 104
CCCCn1c(=O)oc2cc(Br)ccc21 | 94
O=C(NCc1ccc(Cl)cc1)c1ccc(Br)o1 | 95
CC1CC(=O)N(c2ccc(OC(F)(F)F)cc2)C1=O (stereo unspecified) | 91
CN(Cc1ccccc1)C(=O)c1ccc(N2CCCC2=O)cc1 | 107
CCn1c(CNC(=O)c2ccc(OC)c(OC)c2)nc2ccccc21 | 94
CCOC(=O)C1=C(c2ccccc2)OC(N)=C(C#N)C1C(C)C (stereo unspecified) | 101
NS(=O)(=O)c1ccc2nc(NC(=O)c3ccc(Br)cc3F)sc2c1 | 98
O=C(COC(=O)c1cnccn1)c1ccc(Cl)cc1 | 93
CC1(C)CN(c2ccc(Cl)cc2C(=O)c2ccccc2)C1=O | 98
S=c1[nH]nc(Cc2ccccc2)n1Cc1ccccc1 | 105
CCSc1nc2sc3c(c2c2n[nH]c(=S)n12)CCCC3 | 100
O=C(O)c1ccc(CSc2ccccn2)cc1 | 99
N#Cc1ccc(C(=O)NC2CCS(=O)(=O)C2)cc1 (stereo unspecified) | 106

More structures.
Structure | VACV E9 pol inh
Cc1ccc(S(=O)(=O)N2CCN(Cc3cc(-c4ccccc4)ccc3O)CC2)cc1 | 99
CCc1ccccc1NC(=O)CCn1c(=O)c2cccn2c2ccccc21 | 107
O=C(c1c[nH]c2ccccc2c1=O)N(c1ccccc1)c1ccccc1 | 100
O=C(O)CCC(=O)n1ncc2ccccc21 | 100
CCCC(=O)c1cc(F)c(N2CCN(C)CC2)cc1C | 101
CCOC(=O)C1(C(=O)OCC)C(c2ccccc2)CC(=O)CC1c1ccccc1 (stereo unspecified) | 97
O=C(c1ccccc1)N1CC2CC(C1)c1cccc(=O)n1C2 (stereo unspecified) | 100
Cc1cccc(C(=O)Nc2nc3cc4sc(NC(=O)c5cccc(C)c5)nc4cc3s2)c1 | 105
O=S(=O)(c1ccc(F)cc1F)N1CCCN(c2ccc(C(F)(F)F)cn2)CC1 | 113
O=c1[nH]c(SCc2nnc(Nc3ccccc3)s2)nc2sc3c(c12)CCC3 | 100
CCOC(=O)c1c(NC(=O)Cn2nnc3sc4c(c3c2=O)CCC(C)C4)sc2c1CCCC2 (stereo unspecified) | 100
O=C(Cn1c2c(c(-c3ccccc3)cc1=O)CCCC2)NCc1ccc(Cl)cc1 | 104
Cc1ccc(C2c3c(n[nH]c3C)C(=O)N2c2ccc(C)cc2)cc1 (stereo unspecified) | 103
COC(=O)CN1C(C)=Nc2ccc(C)cc2C1c1ccccc1 (stereo unspecified) | 100
Cn1c(CSC2=NCCN2)nc2ccccc21 | 106
CC1(C)C(c2nc(-c3ccc(Br)cc3)no2)C1(C)C | 101
COc1ccc(CCNC(=O)CCn2c(=O)oc3ccccc32)cc1OC | 99
CCOC(=O)c1ccc(N(C(C)=O)c2nc(-c3cc4cccc(OCC)c4oc3=O)cs2)cc1 | 102
C=CCN1C(=O)/C(=C/c2ccc3c(c2)n(C)c(=O)n3C)C(=O)NC1=S | 100
O=C(O)Cn1cnc(-c2ccc(Br)cc2)c1 | 100
C(=N\n1cnnc1)/c1ccc2ncccc2c1 | 102
O=C(O)/C=C/c1c(Cl)nc2sccn12 | 78
FC(F)(F)Sc1nc2ccccc2[nH]1 | 96
Cc1oc2cc(O)ccc2c(=O)c1-c1ccc(F)cc1 | 100
C1CCc2nnc(CCN3CCOCC3)n2CC1 | 89
CC(C)NC(=O)C(C)n1c2ccccc2c2cnn(C)c(=O)c21 (stereo unspecified) | 93
O=C(CSc1ncccn1)c1ccccc1 | 103
CCOc1ccccc1NC(=O)CCc1nnc2ccc(N3CCN(C)CC3)nn12 | 90
Brc1cccc(-c2nnc3sc(CN4CCc5ccccc54)cn23)c1 | 102
Cc1ccc(OCC(=O)OC2CCS(=O)(=O)C2)cc1 (stereo unspecified) | 102
O=C1NCCC2C1N=C(N1CCCCC1)N2C1OC(CO)C(O)C1O (stereo unspecified) | 95
COc1ccc(NC(=O)CCCSc2nc3sc(C)c(C)c3c(=O)[nH]2)cc1 | 108
CCc1cccc(NC(=O)C(Cc2ccccc2)NC(=O)C2CCC(C)CC2)c1 (stereo unspecified) | 103
O=C(CC(c1ccccc1)C1C(=O)NC(=S)NC1=O)c1cccs1 (stereo unspecified) | 100
CN(C)C(=O)CCSc1ccc(Cl)cc1 | 103
N#Cc1c(NC(=O)CCCCl)sc2c1CCCC2 | 111
O=C(COc1ccccc1O)Nc1cccc(Br)c1 | 106
Cc1cc2cc(CNS(=O)(=O)N(C)C)ccc2n1C | 101
CCc1ccc(N(CC)C(=O)c2cc3c(=O)n(CC)c4ccccc4c3s2)cc1 | 96
O=c1c2ccccc2nc(C(F)(F)F)n1-c1ccccc1 | 100
COc1ccc(CN2C(=S)N(c3ccccc3)C(=O)C2CC(=O)Nc2ccccc2)cc1 (stereo unspecified) | 100
CCOc1ccc(-c2cc3ccc(N(CC)CC)cc3oc2=O)cc1 | 92
CCN(CC)c1ncnc2c1cnn2-c1ccc(C)cc1C | 100
CN(C)c1cc(-c2ccc(Cl)c(Cl)c2)oc(=O)c1Cl | 110
CNC(=O)COc1ccc(-c2nn(C)c(=O)c3ccccc23)cc1 | 76*
Cc1cc(C(F)(F)F)nn1Cc1ccc(C(=O)NCc2ccco2)o1 | 100

Bioassay records: PubChem, ICCB-Longwood Screening Facility, Harvard Medical School
